Assay outcomes as filed in PubChem.
V. cholerae QS – Vibrio cholerae quorum sensing activators, luminescence (AID 686977). V. cholerae quorum sensing reporter, luminescence, 6 h; higher luminescence means a stronger effect; most inactives read 0. luminescence at 50 µM unless noted, or EC50 in µM where a hit was titrated. 9,400 tested, under 10 active;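 active = light above mean plus 3 SD and confirmed in a dose series; inconclusive = above that limit without a clear retest; inactive = below it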;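 note: raw light counts without normalisation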
* = called active by the depositor; ? = inconclusive; [ ] = dose if it differs, or a comment.

SMILES | V. cholerae QS
CCCOc1ccc(C2c3c(oc4cc(C)c(C)cc4c3=O)C(=O)N2CCCN2CCOCC2)cc1 (configuration not stated) | 0
CCn1cc(S(=O)(=O)CC(=O)Nc2cc(C)ccc2C)c2ccccc21 | 0
Cc1ccc(C(=O)Nc2nc(-c3cccnc3)cs2)o1 | ?
Fc1c(F)c(C(F)(F)F)c(F)c(F)c1N1CCN(c2ccc3nnc(C(F)(F)F)n3n2)CC1 | 0
CC1=C(C(=O)N(C)CCC#N)C2(CCCCC2)OC1=O | 0
COc1ccccc1CNC(=O)Cn1cc2c(n1)CCCC2 | 0
C1CCc2nnnn2CC1 | 0[10 µg/mL]
Cn1c(C(=O)NCCCN2CCCCCC2)cc2c(=O)n(C)c3ccccc3c21 | 40
COc1ccc2c(c1)c(=O)oc1cc3occ(C(C)(C)C)c3cc12 | 0
O=C1CC(Sc2ncn[nH]2)C(=O)N1c1ccccc1 (configuration not stated) | 0
Cc1ccccc1-n1nc2c(c1NC(=O)COc1ccc(Cl)cc1)CS(=O)C2 (configuration not stated) | 0
Cc1cccc(C)c1NC(=O)C(C)N (configuration not stated) | 0[10 µg/mL]
CC1=C(C(=O)OC(C)C)C(c2ccc(Br)s2)NC(=O)N1C (configuration not stated) | 40
C=CCOc1ccccc1OCC(O)CNC(C)C (configuration not stated) | 40[10 µg/mL]
COc1ccc(/C=N/Nc2ccc([N+](=O)[O-])cc2)cc1Cn1cc([N+](=O)[O-])cn1 | 0
Cn1c2c(c(=O)n(C)c1=O)CN(Cc1ccco1)CN2 | 0
c1coc(-c2nnc3sc(-c4cccs4)nn23)c1 | 0
O=S(=O)(c1ccc2c(c1)OCCO2)N1CCC(n2nnc3cc(C(F)(F)F)ccc32)CC1 | 0
CCOC(=O)c1ccc(NC(=O)CSc2nc3c(c(=O)n2CC)SC(C)C3)cc1 (configuration not stated) | ?
C=CCn1c(SCC(=O)Nc2cc(C)on2)nc2sc3c(c2c1=O)CCCC3 | 0
CCC(c1nnc(SCC(=O)N2CC3(C)CC2CC(C)(C)C3)o1)N(C)C (configuration not stated) | 0
COc1cccc(OCc2nc3ccccc3[nH]2)c1 | 0
COC(=O)c1ccc(C(=O)OC)c(NC(=O)COC(=O)C2CC2C)c1 (configuration not stated) | ?
Cc1occc1C(=O)N1CCN(c2ccc(Cl)c(Cl)c2)CC1 | 0
CCS(=O)(=O)N1Cc2ccccc2CC1C(=O)OCC(=O)Nc1ccc(SC(F)F)cc1 (configuration not stated) | 40
Nc1nc(CSc2nc3ccccc3[nH]2)cs1 | 0
Cc1onc(-c2ccccc2)c1C(=O)NC(C)C | 40
O=C(COc1ccc(Cl)cc1)NNC(=O)C(=O)N1CCCCC1 | 0
COc1cccc(NC2c3ccccc3C(=O)N2Cc2ccco2)c1 (configuration not stated) | 320
O=C(CSc1nnnn1-c1ccc2c(c1)OCCO2)Nc1nc2c(s1)CCCC2 | 40
CCC(=O)Nc1nnc(-c2ccco2)o1 | 0
CCC(C)(C)NC(=O)C(c1cccn1C)N(C(=O)Cn1nnc2ccccc21)c1ccccc1OC (configuration not stated) | 0
O=C(Nc1ccccc1)c1cnc2n(c1=O)CCS2 | 0
COc1ccc2c(CC(=O)OCC(=O)c3ccccc3OC)coc2c1 | 0
CC(=O)N1CCN(CCN=CC2=C(O)CC(c3cccs3)CC2=O)CC1 (configuration not stated) | 0
CC(=O)c1cc(C#N)c(SCC(=O)OC(C)C)nc1C | 0
Cc1[nH]c2c(C(F)(F)F)cccc2c1CCN | 0
COc1ccc(C(=O)NC(Cc2ccccc2)c2ccc3c(c2)OCCCO3)cc1 (configuration not stated) | 0
CCN(CC)CCn1c2ccc(F)cc2c2nc(C)sc21 | 0
Cn1c(=O)[nH]c(=O)c2c1nc(N1CCCC1)n2CC(O)COc1ccccc1 (configuration not stated) | 0

Filtered by structure, the compounds so far containing a cyano group.
SMILES | V. cholerae QS
CC1=C(C(=O)N(C)CCC#N)C2(CCCCC2)OC1=O | 0
CC(=O)c1cc(C#N)c(SCC(=O)OC(C)C)nc1C | 0

(next part)
SMILES | V. cholerae QS
C=CCOC(=O)C(C#N)c1nc2ccccc2nc1N1CCC(C(=O)OCC)CC1 (configuration not stated) | 0
COc1cc2nc(N(C)CCCNC(=O)C3CCCO3)nc(N)c2cc1OC (configuration not stated) | 0[10 µg/mL]
Cn1cccc1Cc1nnc(SCC(=O)NC2CCCC2)n1-c1ccc(F)cc1 | 0
COc1ccc(-c2cc(C(F)(F)F)nc(NCc3ccco3)n2)cc1OC | 40
CCCCC(CC)CN1CN(CC(CC)CCCC)CC(C)(N)C1 (configuration not stated) | 40[10 µg/mL]
CC(=O)N1CCc2cc(S(=O)(=O)Nc3ccccc3N3CCN(C)CC3)ccc21 | 0
O=C(Nc1nc2ccccc2s1)c1ccc(Cl)s1 | 0
CCCNC(=O)CN(Cc1ccccc1F)S(=O)(=O)c1ccc(C)cc1 | 0
COc1cc(C)c(S(=O)(=O)N2CCOCC2)cc1C(C)C | 320
OCCN1CCN(CCCN2c3ccccc3Sc3ccc(C(F)(F)F)cc32)CC1 | 720[10 µg/mL]
O=C(NCc1nc2ccccc2[nH]1)c1cccs1 | 0
COc1cc(OC)c(NC(=O)c2ccc(Br)o2)cc1Cl | 0
Cn1c(=O)c2c(SCc3ccccn3)nc(CC(C)(C)C)nc2n(C)c1=O | 40
CN(C)/N=N/c1nc[nH]c1C(N)=O | 0[10 µg/mL]
COc1cccc2c(=O)n(CC(=O)N3CCCCC3)ccc12 | 0
CCOC(=O)COc1cccc2c(=O)n(CC(=O)N3CCN(C(=O)OCC)CC3)ccc12 | 0
COc1cc(/C=C2/CCC/C(=C\c3cc(O)c(OC)c(Cl)c3)C2=O)cc(Cl)c1O | 0
COC(=O)[C@H](C)NC(=O)NC1CCCc2ccccc21 (some centres not stated) | 0
CCOC(=O)N1CCN(C(=O)Cn2nc(C)c3sc4ccccc4c3c2=O)CC1 | ?
Cc1cc(C)n2nc(SCC(=O)N3CCC4(CC3)OCCO4)nc2n1 | 0

Some of the entries so far, field by field:
OCCN1CCN(CCCN2c3ccccc3Sc3ccc(C(F)(F)F)cc32)CC1
  V. cholerae QS: 720[10 µg/mL]
O=C(NCc1nc2ccccc2[nH]1)c1cccs1
  V. cholerae QS: 0
COc1cc(OC)c(NC(=O)c2ccc(Br)o2)cc1Cl
  V. cholerae QS: 0
Cn1c(=O)c2c(SCc3ccccn3)nc(CC(C)(C)C)nc2n(C)c1=O
  V. cholerae QS: 40

(cont.)
SMILES | V. cholerae QS
COc1ccc(OCC(O)CN2CCCCC2)cc1 (configuration not stated) | 0
COc1cccc2cc(C(=O)N3CCN(c4ccc(C)cc4C)CC3)c(=O)oc12 | 40
CCC1(C)Cc2ccccc2-c2nc(NCCCO)n(-c3ccccc3)c(=O)c21 (configuration not stated) | 40
CCCn1cc(NC(=O)c2cc3n(n2)C(C(F)(F)F)CC(c2ccccc2)N3)cn1 (configuration not stated) | 0
COc1ccc(S(=O)(=O)N(C)c2ccc(C(=O)N3CCOCC3)cc2)cc1 | 0
CCOC(=O)c1ccc(NC(=O)COc2cc(=O)n(CC)c3ccccc23)cc1 | 0
O=C(C1CCCN(S(=O)(=O)c2cnc[nH]2)C1)N(CCc1ccccc1)Cc1ccccc1 (configuration not stated) | 0
O=C1C2=C(c3ccccc31)[N+](=O)C1CCCCC1N2[O-] (configuration not stated) | 0
CC(C)OC(=O)c1c(N)n(Cc2ccco2)c2nc3ccccc3nc12 | 0
NC(=O)C1CCN(c2ncnc3c2c(-c2ccccc2)cn3-c2ccccc2)CC1 | 0
COc1ccc(CCN2C(=O)c3[nH]nc(-c4ccccc4O)c3C2c2cccc(O)c2)cc1OC (configuration not stated) | 40
O=C(Nc1cccnc1)c1cc(-c2ccc(Br)cc2)on1 | 40
CN(C(=O)CN(CCO)CC(=O)N(C)C(C)(C)Cc1ccccc1)C(C)(C)Cc1ccccc1 | 0[10 µg/mL]
CN(C)c1cccc(C(=O)Nc2ccc3nc4n(c(=O)c3c2)CCCCC4)c1 | 0
O=c1cc(N2CCOCC2)[nH]c(=O)n1Cc1ccc(F)cc1 | 0
CCOC(=O)C(C)Sc1nnc(Cn2c(=O)sc3ccccc32)n1-c1ccccc1 (configuration not stated) | 0
Cc1nc2cc(C(F)(F)F)ccc2n1C1CCN(CC(=O)N2CCOCC2)CC1 | ?
COc1ccc(C(=O)N2CCN(c3ccc(C)cc3)CC2)cc1OC | 40
CCN(Cc1ccccc1)S(=O)(=O)c1ccc(C(=O)Nc2nnc(C3CC3)o2)cc1 | 0
O=C(Cn1nc(-c2ccc(Cl)cc2)ccc1=O)NCC1CCCO1 (configuration not stated) | 40
COc1ccccc1-n1cnnc1SCC(=O)N1CC(=O)Nc2ccccc21 | ?
Cn1c(C(=O)OCC(=O)NCCc2ccccc2)cc2sccc21 | 0
COc1ccc(NC(=O)C2CCCN(S(=O)(=O)c3cccnc3)C2)c(OC)c1 (configuration not stated) | 0
CCC(N1CCOC1=O)S(=O)(=O)c1ccc(C)cc1 (configuration not stated) | 0
COc1cccc2c(=O)n(CC(=O)NC3CCCC3)ccc12 | 0
O=C1CC(c2ccsc2)c2cc3c(cc2N1)OCCO3 (configuration not stated) | ?
COc1ccc(NC(=O)CN(c2cc(C)cc(C)c2)S(=O)(=O)c2c(C)noc2C)cc1 | 40
CCc1c(C)nc2ncnn2c1NCc1cccs1 | 0
Cc1occc1-c1nnc(SCC(=O)Nc2nc3ccccc3s2)o1 | 0
OC(c1cc(C(F)(F)F)nc2c(C(F)(F)F)cccc12)C1CCCCN1 (configuration not stated) | 0[10 µg/mL]
COc1ccc(CNc2nc3c(c(C(F)(F)F)n2)CCCCC3)cc1 | 0
O=C1/C(=C/c2cccnc2)Oc2cc(OS(=O)(=O)c3ccccc3)ccc21 | 40
O=C(NC1CCN(C(=S)NCc2ccco2)CC1)C12CC3CC(CC(C3)C1)C2 | 0
CCCc1nc(SCC(=O)Nc2cc(C)on2)c2c(=O)n(C)c(=O)n(C)c2n1 | 0
Cc1ccc(C(=O)NCc2ccc3c(c2)OCO3)cc1N1CCCC1=O | 0
COc1cccc(-c2nc3ccc(O)cc3c(=O)o2)c1 | ?
COc1ccc(CCC(=O)Nc2nc3c(s2)CN(C)CC3)cc1OC | 0
COc1ccc(CCNC(=O)CCS(=O)(=O)c2ccc3c(c2)CCN3C(C)=O)cc1OC | ?
CNCC(O)c1ccc(O)cc1 (configuration not stated) | 0[10 µg/mL]
CC(C)(C)NC(=O)c1cnn2c1NC(c1ccc(F)cc1)CC2C(F)(F)F (configuration not stated) | 0
CCCC1CC(CSC(=N)N)OC1=O (configuration not stated) | 0
CC1CCN(S(=O)(=O)Cc2ccccc2Cl)CC1 | 40
COc1ccc(C(=O)N2CCCc3ccccc32)cc1 | 0
O=C(O)c1cc(S(=O)(=O)O)ccc1O | 0
Cc1ccccc1-c1ccc(Nc2ccc(N3CCOCC3)cc2)nn1 | 40
O=C(Nc1ccc(C(=O)N2CCCCC2)cc1)C1CCCCC1 | 0
CCOc1ccc(CCNc2nc3c(c(=O)n(C)c(=O)n3C)n2CC)cc1OCC | 0
N#CC1=C2SCN(Cc3ccccc3)CN2C(=O)CC1c1ccccc1F (configuration not stated) | 0
CCOC(=O)c1c(C)c(-c2ccccc2)n(CC(=O)N2CCCC2)c1C | 0
O=C(NCc1cccs1)Nc1cccs1 | 0
Cc1cc(C)n2cc(CSCc3ccco3)nc2n1 | 240
O=C(CCc1ccccc1)Nc1nnc(-c2ccc3c(c2)CCCC3)o1 | 40
CC(C)C(NS(=O)(=O)c1ccc2c(c1)oc(=O)n2C)C(=O)N1CCN(C2CCCCC2)CC1 (configuration not stated) | 40
CCC(=O)N=c1sc2c(C)cc(C)cc2n1CC(=O)OC | 0
C=CCOC(=O)C1=C(C)NC(=S)NC1/C=C/c1ccccc1 (configuration not stated) | 0
CCOC(=O)c1ccc(NC(=S)N2CCN(S(C)(=O)=O)CC2)cc1 | 40
CCc1nnc(NC(=O)CSc2nnc(-c3ccco3)n2CC)s1 | 0
O=C(O)c1cccc(C(=O)O)n1 | 40
COc1ccc(O)c(/C=N/c2sc(C)c(C)c2C#N)c1 | 0
COC(=O)c1cc(-c2ccc(Br)cc2)n[nH]1 | 0

Going on with the list.
SMILES | V. cholerae QS
O=C(c1ccc(CS(=O)(=O)c2ccc(Br)cc2)o1)N1CCCC1 | 0
CC1CN(c2cc(=O)n(Cc3ccc(F)cc3)c(=O)[nH]2)CC(C)O1 (configuration not stated) | 0
Cc1nc(CN2CCN(C(=O)c3ccc(C(C)(C)C)cc3)CC2)cs1 | 0
CC1CN(c2cc(=O)n(-c3ccccc3)c(=O)[nH]2)CC(C)O1 (configuration not stated) | 40
O=C(NC(c1ccccc1)c1ccccc1)C1CCCN(S(=O)(=O)c2cnc[nH]2)C1 (configuration not stated) | 0
CCC(CC)c1nnc(NC(=O)c2c(C)nn(Cc3ccccc3Cl)c2C)s1 | 40
Cc1cc(C)c2c(=O)n(CC(=O)NCCCN3CCOCC3)sc2n1 | 0
CC(=O)Nc1cc(-c2nn(C)c(=O)c3ccccc23)ccc1N1CCOCC1 | 40
CCN1CCN(CC(=O)c2c[nH]c3ccc(C)cc23)CC1 | 0
CCn1c(SCC(=O)Nc2ccc3c(c2)OCO3)nc2c(c1=O)SC(C)C2 (configuration not stated) | 40
Clc1ccc(Cn2c(CN3CCCC3)nc3ccccc32)cc1 | 0[10 µg/mL]
Cc1noc(C)c1CSc1nc2ccccc2c(=O)n1-c1ccc(Cl)cc1 | 40
CCOCc1cn(CC(=O)c2ccc([N+](=O)[O-])cc2)c(C)nc1=N | 40
O=C(Cn1cc2c(n1)CCCC2)NCc1cccs1 | 0

Some of the compounds tested (hit frequency here may not be typical).
